From PubChem BioAssay
NPYLR7 ag: activates Aedes aegypti NPYLR7 receptor. HEK293T NPYLR7/Galpha15, GCaMP6s calcium fluorescence. activation, % at 10 µM. 270,000 compounds, 0.15% hits; in the data active = activation above about 40%;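 also: 0% = vehicle and 100% = reference agonist at the receptor; some compounds past the cut are filed as inactive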
NPYLR7 ag max-min: further read-out of NPYLR7 ag, marked with its call; activation, %; measured here: Max-Min RFU normalised activation; some inactives read as strong as hits;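 span of the calcium signal over five minutes; 0% = vehicle and 100% = native peptide agonist; compound fluorescence can raise it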
Numbers without * were called inactive. Some of the compounds tested; rates above refer to the full screens.

Below each compound – NPYLR7 ag, NPYLR7 ag max-min
> COc1ccccc1C(=O)NCCn1cc(SCC(=O)Nc2cccc(C)c2)c2ccccc21
    -1.4, -3.4
> CNc1cncc(-c2ccc(C)cc2)n1
    -0.2, -2.6
> CC(=O)C1=C(C)Nc2ccccc2S1
    12.5, 5.1
> CCOc1ccc(OCCn2cnc3ccccc3c2=O)cc1
    3.9, 9.1
> Cn1nc(-c2cccc(NC(=O)c3ccccn3)c2)ccc1=O
    -0.6, -3.5
> Cc1ccn2cc(C(=O)N3CCCC3CN3CC(C)OC(C)C3)nc2c1 (stereo unspecified)
    3.4, 1.2
> COc1ccc(OC)c(N=Cc2c(O)n(-c3ccccc3)c(=O)c3ccccc23)c1
    -8.4, -13.9
> Cc1cc(C)c2c(n1)nn1c(NCCC3=CCCCC3)cc(C)nc21
    0.1, 14.1
> O=C(C1=NN(Cc2ccccc2)C(=O)CC1)N1CCCC(C(F)(F)F)C1 (stereo unspecified)
    3.3, 2.5
> COCCNC(=O)C1CCCN(C2CCN(C(=O)c3ccc(F)cn3)CC2)C1 (stereo unspecified)
    -7.1, -9.2
> CCOC(=O)C1CCN(c2nccc(OCC)n2)CC1
    26.5, 17.9
> CCCc1nnc2c(=O)n(-c3cc(C)cc(C)c3)ccn12
    11.0, 0.8
> CC(=O)c1csc(NC(=O)c2cc(-n3c(C)ccc3C)ccc2Cl)n1
    -4.0, -6.8
> COC(=O)[C@@H]1C[C@@H](NC(=O)c2cccc(-c3cn[nH]c3)c2)CN1C
    -2.5, -0.5
> Cc1cc(Br)c2c(c1)c(N=NC(=O)c1ccc(O)cc1)c(O)n2C
    -2.4, -10.1
> Cc1cc(NC(=O)COc2ccc(C3=CCN(C(N)=O)CC3)cc2)ccc1Br
    0.9, 0.8
> COC(=O)c1cccc2c1CCN(C(=O)Cc1ccc(C(F)(F)F)cc1)C2
    7.1, 9.1
> O=C(Nc1nnc(-c2ccc(Cl)cc2)s1)C1CCCN1C(=O)COCc1ccccc1 (stereo unspecified)
    -2.3, 4.7
> CCN1C(=O)C(=Cc2ccccc2F)SC1=NS(=O)(=O)c1ccccc1
    -5.1, -6.7
> COc1ccccc1C(C)N(C)S(=O)(=O)c1cccc(C(F)(F)F)c1 (stereo unspecified)
    3.2, 0.3
> CCCCC(O)CN(Cc1c(C)nn(-c2ccccc2)c1Oc1cccc(F)c1)CC1CC1 (stereo unspecified)
    -3.9, 0.0
> O=C(N[C@@H]1CCCCC1NC(=O)C1CCN(C(=O)c2ccc(Cl)cc2)CC1)c1ccc(F)cc1 (stereo partly specified)
    -1.5, 1.9
> Cc1cc(C)cc(N2C(=O)CC(Sc3ncn[nH]3)C2=O)c1 (stereo unspecified)
    -0.9, -6.5
> O=C(CCn1cnc2scc(-c3ccc(F)cc3)c2c1=O)Nc1ccc(F)c(F)c1
    0.5, 0.5
> COCCN1C(=O)c2ccccc2[C@H](C(=O)Nc2ccc3[nH]ncc3c2)[C@@H]1c1cccnc1
    -14.3, -16.5
> Cc1ccn2c(=O)c(NC(=O)c3ccc(Br)o3)c(C)nc2c1
    0.6, -1.4
> Cn1cccc1-c1cc(C(=O)N(CCc2ccccc2)Cc2ccccc2)n(-c2cccc([N+](=O)[O-])c2)n1
    12.4, 7.2
> Nc1cc(Br)ccc1[N+](=O)[O-]
    -8.8, -9.8
> COc1ccc(C(C)=O)cc1Cn1c(C)c(C(=O)NCc2ccc(C(F)(F)F)cc2)sc1=O
    1.2, -2.8
> CCn1c(CC2CCN(CC3=CC[C@H]4C[C@@H]3C4(C)C)CC2)nn(C)c1=O
    24.3, 10.3

Some of the entries above in a different format.
SMILES	NPYLR7 ag	NPYLR7 ag max-min
COc1ccccc1C(C)N(C)S(=O)(=O)c1cccc(C(F)(F)F)c1 (stereo unspecified)	3.2	0.3
Cc1ccn2cc(C(=O)N3CCCC3CN3CC(C)OC(C)C3)nc2c1 (stereo unspecified)	3.4	1.2
O=C(CCn1cnc2scc(-c3ccc(F)cc3)c2c1=O)Nc1ccc(F)c(F)c1	0.5	0.5
CC(=O)C1=C(C)Nc2ccccc2S1	12.5	5.1

Remaining list, next part:
Below each compound – NPYLR7 ag, NPYLR7 ag max-min
> COc1cccc(-n2nnc3c(N4CCN(C(=O)c5cccc(C(F)(F)F)c5)CC4)ncnc32)c1
    -15.2, -24.4
> CCn1c(=NC(=O)c2ccc(C(C)=O)cc2)sc2cc(F)cc(F)c21
    9.1, 8.4
> S=c1oc(-c2ccncc2)nn1CN1CCOCC1
    1.2, 5.7
> COC1C=CCC(c2ccc([N+](=O)[O-])cc2)C1(C#N)C#N (stereo unspecified)
    -9.8, -11.0
> Cc1noc(C)c1CN1CCN2C(C(=O)Nc3ccc(-n4cccc4)cc3)=COC2=NC1=O
    9.5, 10.4
> CCn1nnnc1NCc1ccccc1OCc1ccc(C)cc1
    19.2, 16.4
> COc1ccc2c(c1)ncn2C[C@]1(O)CCCN2CCCC[C@@H]21
    -0.5, -3.7
> CCC(NC(N)=O)C(=O)OCc1cc(=O)n2c3c(sc2n1)CCCC3 (stereo unspecified)
    -0.5, 38.5
> O=C(NC1CC2CCC(C1)N2CCc1ccccc1)c1ccc(Cl)cc1 (stereo unspecified)
    2.1, -3.2
> Cc1n[nH]c(=O)nc1N1CCN(c2ccccc2)CC1
    7.0, 2.3
> Cn1c(O)c(N=Nc2ccc([N+](=O)[O-])cc2)c2cc(Br)cc(Br)c21
    -3.7, -8.3
> O=C(COC(=O)c1cc2c(s1)CCC2)NC(=O)NC1CCCC1
    4.1, 2.4
> O=C(NCc1ccccc1)N1CCN(C(=O)c2ccco2)CC1
    2.2, 0.1
> N#Cc1cccc(CSc2nc(Oc3ccccc3F)cc(-c3ccccc3)n2)c1
    0.5, 8.9
> Cc1cc(CN2CCCC2c2ccc(C(=O)NCCc3ccccn3)s2)n[nH]1 (stereo unspecified)
    23.0, 13.1
> CN(C)CC1(O)CCCN(C(=O)C(C)(C)NC(=O)c2cccs2)C1 (stereo unspecified)
    -1.6, 1.1
> C=CCOC(=O)c1sc2nc(CNCc3ccco3)[nH]c(=O)c2c1C
    3.4, 12.9
> COc1ccc(C(=O)NC2CCN(c3ccccc3C(=O)NCc3cccc(C(F)(F)F)c3)CC2)cc1OC
    -12.8, -11.3
> O=C(NC(c1ccc(Cl)cc1)c1ccsc1)C1CCN(CCc2c[nH]c3ccccc23)CC1 (stereo unspecified)
    7.4, 4.5
> Cc1nc(C2CCNCC2)cc(N(C)Cc2cn[nH]c2-c2ccccc2)n1
    2.5, 1.7
> CCC(=O)Nc1cc(C)nn1-c1nc(C)c(C)c(=O)[nH]1
    7.8, 0.2
> O=C(Nc1ccc(SCC(=O)N2CCOCC2)nn1)c1cccc(F)c1
    0.6, -0.9
> CCn1c(CN2CCCC(CCC(=O)Nc3ccc(OC)cc3C)C2)nc2ccccc21 (stereo unspecified)
    10.2, -2.5
> COCCCNc1nc(Nc2cccc(C)c2)c2cnn(-c3ccccc3)c2n1
    2.6, -0.2
> CC(Oc1ccccc1)C(=O)N1CCN(CC(OCc2ccc(C#N)cc2)c2cccc(N3CCCC3)c2)CC1 (stereo unspecified)
    4.9, 2.4
> COc1ccccc1-c1cc(C(=O)N(CCC#N)Cc2cccnc2)n2nc(-c3ccc(Cl)cc3)cc2n1
    6.1, 16.2
> CCOc1ncccc1-c1cccc(-c2noc(C)n2)c1
    4.9, 2.7
> CC(C)(NS(=O)(=O)c1cc(Cl)ccc1Cl)c1ccc2c(c1)OCCO2
    1.3, -1.4
> O=C1CCCN1Cc1nc(Cc2ccccc2)n[nH]1
    -1.4, -1.5
> Cc1[nH]n(-c2nc(-c3ccc(Cl)cc3)cs2)c(=O)c1N=Nc1ccccc1C(F)(F)F
    -3.6, -5.7

Following part:
Below each compound – NPYLR7 ag, NPYLR7 ag max-min
> CCOC(=O)CSc1nnc(NC(=O)Cc2cccs2)s1
    1.9, 12.5
> COc1ccc(CCOC(=O)C2CCCCN2C(=O)CC2CCC(C)CC2)cc1OC (stereo unspecified)
    -2.8, -7.9
> Cc1nnc(SCCNC(=O)CN2CCCN(C)CC2)s1
    9.7, 6.9
> CCc1ccc(NS(=O)(=O)c2ccc(Cl)cc2OC)cc1
    4.1, 2.6
> COc1ccc(S(=O)(=O)c2cnc(SCC(=O)NCc3ccc(F)cc3)[nH]c2=O)cc1OC
    2.8, 1.9
> NS(=O)(=O)c1ccc(N2CCCC2)nc1
    1.3, -0.2
> Cc1ccc2[nH]cc(-c3nccs3)c2c1
    16.4, 4.2
> CCCC(=O)OCC(O)CN(CCOC)Cc1ccc(F)cc1F (stereo unspecified)
    -3.0, 1.2
> O=C(Nc1cccc(C(F)(F)F)c1)C1CCCCC1C(=O)N1CCc2c([nH]c3ccccc23)C1 (stereo unspecified)
    -12.5, -17.2
> NC(=O)C1CCN(Cc2cccc(NC(=O)C3COc4ccccc4C3)c2)CC1 (stereo unspecified)
    7.2, 2.3
> COc1ccccc1CC(=O)N1CCOC(COc2ccc3c(c2)CCCC3)C1 (stereo unspecified)
    -5.0, -6.5
> CN1CCC(Cc2noc(-c3ccccc3N3CCS(=O)(=O)CC3)n2)CC1
    -1.4, -5.9
> O=C(NCC1CCCO1)c1cccnc1N1CCN(C(=O)NCc2ccco2)CC1 (stereo unspecified)
    -0.9, -7.1
> CCOC(=O)C(CC)Sc1ccc2nnc(CCNC(=O)c3ccccc3)n2n1 (stereo unspecified)
    1.6, -2.0
> CC(C)(O)c1ccc(CN(CCN2CCOCC2)Cc2ccc(F)cc2)o1
    10.2, 8.1
> COc1ccc(-c2nccn2CCc2nc(C)c(C)s2)cc1O
    -1.0, -7.1
> N#Cc1cccc(NCC(=O)NCc2ccc(C(=O)N3CCCC3)cc2)c1
    16.9, 12.8
> COc1cccc(CN(C)Cc2nc(C)no2)c1O
    3.4, 15.4
> CCSc1nnc2c(n1)OC(c1ccsc1)Nc1ccc(Br)cc1-2 (stereo unspecified)
    10.7, 6.8
> C[C@H](C(=O)NCC1CC1)N1Cc2ccc(-c3cccnc3)nc2C1=O
    4.9, 7.7
> Cn1cc(CCC(=O)C(C#N)C(=O)Nc2ccc(F)cc2F)cn1 (stereo unspecified)
    -0.2, 0.3
> O=C(CN1C(=O)CSC(c2ccc3c(c2)OCO3)c2c(-c3ccccc3)nn(-c3ccccc3Cl)c21)N1CCCC1 (stereo unspecified)
    14.0, 27.1
> COC(=O)C(NC(=O)c1ccsc1)C(C)C (stereo unspecified)
    -0.2, -3.6
> CN(CN1CCSC1=S)C1CCN(CC(F)(F)F)C1=O (stereo unspecified)
    -5.1, -6.5
> Cc1ccc(C(=O)NNS(=O)(=O)c2c(C)n[nH]c2C)c(C)c1
    21.5, 12.2
> O[C@H]1CN(Cc2cnn(-c3ccccc3F)c2)C[C@@H]1N1CCN(c2ccccn2)CC1
    1.4, -4.8
> COCCN1C(=O)C2(SCCN2C(=O)c2ccc(F)cc2)c2ccccc21 (stereo unspecified)
    8.0, 10.7
> O=C(CSc1nc(=O)n(CC2CCCO2)c2c1CCCC2)N1CCc2ccccc21 (stereo unspecified)
    -8.1, -13.3
> CCCC(=O)Oc1cc(C)[nH]c(=O)c1[N+](=O)[O-]
    1.8, 0.5
> CCOc1ccc2nc(N=Cc3nc(-c4ccc(Cl)cc4)oc3O)sc2c1
    -4.3, -13.9

Further compounds.
Below each compound – NPYLR7 ag, NPYLR7 ag max-min
> CC(C(=O)N1CCC(n2nccc2NC(=O)CCc2ccccc2)CC1)N1CCCC1=O (stereo unspecified)
    -1.1, -3.0
> Cc1nc(SC(C)C(=O)NC(N)=O)c2c(C)c(C)sc2n1 (stereo unspecified)
    1.2, 10.6
> CN1CCN(C(=O)/C(=C/c2cccs2)c2ccc(F)cc2)CC1
    3.8, 2.6
> O=C(NC1CCCc2ccccc21)C1CC(Cc2ccc3c(c2)OCO3)=NO1 (stereo unspecified)
    4.8, 0.8
> CCCCCCNC(=O)c1cc(-c2ccc(OC)cc2)nc2cc(C(C)(C)C)nn12
    13.7, 14.7
> Cc1c(-c2nccn2CCc2nc(-c3cccnc3)no2)oc2ccccc12
    11.9, 2.1
> Cc1cc(N2CCN(S(=O)(=O)/C=C/c3ccccc3)CC2)nc(-c2cccc(C(F)(F)F)c2)n1
    14.9, 10.8
> Cc1nnc2c(=O)n(-c3ccccc3)ccn12
    -12.5, -16.5
> COc1cccc(C(=O)NC(=NCCN(C)C)OCC(C)C)c1
    -4.0, -4.6
> CCOC(=O)N1CCN(Cc2ccc3c(c2)CN(C(=O)Cc2ccc4c(c2)OCO4)CCO3)CC1
    2.2, 4.0
> COc1ccc(C(=O)N(Cc2ccccc2)C2CCC(NC(=O)C3CCN(S(C)(=O)=O)CC3)CC2)cc1 (stereo unspecified)
    19.1, 24.2
> Cc1nc(-c2ccc(CN)o2)cs1
    10.2, 17.5
> CC1CN(C(=O)CCCSc2nnc(-c3ccc(Cl)cc3)n2-c2ccccc2)CCN1C(=O)c1cccc(C(F)(F)F)c1 (stereo unspecified)
    4.6, 3.6
> O=C(Cn1cnc([N+](=O)[O-])n1)N/N=C\c1ccccc1OCc1cccc(Br)c1
    -24.4, -29.4
> CC(NC(=O)NCc1ccccc1)c1ccc(C#N)cc1 (stereo unspecified)
    7.9, 5.5
> O=C(O)c1ccccc1C1CCN(C(=O)c2ccc3cc[nH]c3c2)C1 (stereo unspecified)
    2.7, 0.7
> C#CCN1CCC(C(=O)N2CC(=O)NC3CCCCC32)CC1 (stereo unspecified)
    -1.4, 50.4
> Cn1cccc1C(=O)NC(=O)CSc1nnc(Cc2cccs2)n1C
    0.5, 4.0
> COc1cccc(CC2CN(Cc3nccn3C)CCO2)c1 (stereo unspecified)
    4.3, 2.3
> COc1ccc(S(=O)(=O)NCc2cnn3ccccc23)c(OC)c1
    1.9, 1.2
> CCn1c(C2CCN(C3CCN(c4ccccc4)CC3)CC2)nn(C)c1=O
    -6.1, -4.4
> CCn1cc(C(=O)N2CCN(CC(=O)NC(C)C)CC2)c2nn(-c3ccccc3)c(=O)c-2c1
    -1.3, -5.1
> CCOc1ccc(-c2ccc(=O)n(CCCC(=O)Nc3cc(Cl)ccc3C)n2)cc1
    -12.2, -18.4
> O=C1CCCN1CCCN1CC(C(=O)N2CCN(c3ccccc3Cl)CC2)CCC1=O (stereo unspecified)
    3.4, 1.2
